DUX4 inh – blocks DUX4-driven transcriptional activation. 293T-iDUX4 ZSCAN4-Gaussia luciferase reporter, 24 h; hits give low values. activity change, negative = inhibition, % (concentration not given with the values). 0.8% of 37,000 active. AID 1224904;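 active = -10% or lower and over 25 points stronger than a control reporter; inconclusive = -10% or lower with a smaller gap; inactive = above -10%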;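 note: 0% = median of neutral control wells and -100% = median of positive control wells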
DUX4 inh difference – further read-out of DUX4 inh, marked with its call; Gaussia minus Italica difference, %; measured here: selective DUX4 reporter inhibition;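 worked out from the two reporters; negative = selective loss of the DUX4 reporter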
DUX4 inh control – further read-out of DUX4 inh, marked with its call; activity change, negative = inhibition, %; measured here: Italica tet-on control reporter;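 0 = neutral control and -100 = positive control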
Active calls of the source: *; ? = inconclusive; / = not tested or not shown. An excerpt. The share of hits here may be higher or lower than overall.

mol	DUX4 inh	DUX4 inh difference	DUX4 inh control
C[C@@H]1CN([C@@H](C)CO)C(=O)CCCn2nncc2CO[C@H]1CN(C)Cc1ccc(C(F)(F)F)cc1	-9	-6	-3.0
COc1ccc(NC(=O)Nc2ccc3c(c2)[C@H]2C[C@H](CC(=O)NCCc4ccccc4)O[C@H](CO)[C@H]2O3)cc1	-7	-9	2.1
CN1CCN(C(=O)C[C@@H]2CC[C@H]3[C@H](COc4ccc(NC(=O)c5cccs5)cc4C(=O)N3C)O2)CC1	-4	-4	-0.2
O=C(C[C@H]1CC[C@@H]2[C@H](COC[C@@H](O)CN2Cc2ccc3c(c2)OCO3)O1)N1CCOCC1	8	2	5.6
CCCC#Cc1ccc([C@@H]2[C@@H](CO)N(C(=O)C3CCOCC3)[C@H]2C#N)cc1	3	5	-1.9
COc1ccc2c3c([nH]c2c1)[C@@H](CO)N(C)CC31CCN(S(=O)(=O)c2ccc(C)cc2)CC1	3	12	-8.8
COc1ccc(NC(=O)N[C@H]2CC[C@H](CCNC(=O)CN3CCOCC3)O[C@H]2CO)cc1	0	-1	0.4
COc1cccc(CN2CC3(C2)[C@H](c2ccccc2)[C@@H](CO)N3Cc2cccc(OC)c2)c1	?	/	/
CC(=O)N1CC(=O)N2[C@H](C1)[C@@H](c1ccc(-c3ccc(C(=O)N(C)C)cc3)cc1)[C@@H]2CO	12	2	9.8
CCC(=O)N1[C@@H]2c3ccc(-c4ccc(F)cc4)c(=O)n3C[C@@H]2[C@@H](CO)[C@@H]1C(=O)N(C)C	-1	-3	2.1
CN1C(=O)c2cc(NC(=O)Nc3ccc(F)cc3)ccc2OC[C@H]2O[C@@H](CC(=O)NC3CCC3)CC[C@H]21	-1	1	-2.2
Cc1noc(C)c1S(=O)(=O)N(C)C[C@H]1Oc2c(cccc2N(C)C)C(=O)N([C@H](C)CO)C[C@@H]1C	-5	-1	-4.9
CN(C)C(=O)c1ccc(-c2ccc3n(c2=O)C[C@@H]2[C@@H](CO)[C@H](C(=O)NCCc4ccccc4)N[C@H]32)cc1	-3	-1	-2.1
CCCC(=O)Nc1ccc2c(c1)OC[C@H](C)N(CCc1ccccc1)C[C@H](C)[C@H](OC)CN(C)C2=O	-2	-2	0.3
COc1ccccc1-c1ccc2c(c1)[C@@H]1[C@@H](CCN1S(=O)(=O)c1cccc(F)c1)[C@H](CO)N2	?	/	/
O=C(C1CCCCC1)N1CC2(C1)[C@H](c1ccccc1)[C@@H](CO)N2Cc1cncnc1	5	3	1.4
CCCC#Cc1ccc([C@@H]2[C@@H](CO)N3CCCCN(CCC)C[C@@H]23)cc1	-1	-12	11
COc1ccc(C(=O)Nc2ccc3c(c2)OC[C@@H](C)NC[C@@H](C)[C@@H](OC)CN(C)C3=O)cc1	-2	-6	4.1
O=C(Nc1ccccc1F)N1C[C@H]2[C@@H](c3ccccc31)[C@@H](CO)N2C(=O)c1ccccc1F	-2	0	-1.5
CO[C@@H]1CC[C@H]2CCN(C)C(=O)[C@H](C)CN(C)C(=O)c3cc(C#N)ccc3OC[C@@H]1O2	-1	2	-3.0
Cc1noc(C)c1S(=O)(=O)Nc1ccc2c(c1)C(=O)N([C@H](C)CO)C[C@@H](C)[C@@H](CN(C)C(=O)c1ccncc1)OCCCC[C@H](C)O2	5	-3	7.9
COc1ccccc1C#Cc1ccc2c(c1)O[C@H](CN(C)Cc1ccncc1)[C@H](C)CN([C@H](C)CO)S2(=O)=O	2	1	0.8
CN1C[C@@H]2[C@H](c3ccccc31)[C@H](CO)N2S(=O)(=O)c1ccccc1	-3	-1	-1.8
CNC[C@@H]1Oc2ccc(NC(=O)NC3CCCCC3)cc2CC(=O)N([C@@H](C)CO)C[C@H]1C	-3	0	-3.4

Arranged by value in DUX4 inh difference (low to high): some entries from above
| structure | DUX4 inh difference |
| --- | --- |
| CCCC#Cc1ccc([C@@H]2[C@@H](CO)N3CCCCN(CCC)C[C@@H]23)cc1 | -12 |
| CN1CCN(C(=O)C[C@@H]2CC[C@H]3[C@H](COc4ccc(NC(=O)c5cccs5)cc4C(=O)N3C)O2)CC1 | -4 |
| CCCC(=O)Nc1ccc2c(c1)OC[C@H](C)N(CCc1ccccc1)C[C@H](C)[C@H](OC)CN(C)C2=O | -2 |
| O=C(Nc1ccccc1F)N1C[C@H]2[C@@H](c3ccccc31)[C@@H](CO)N2C(=O)c1ccccc1F | 0 |
| O=C(C[C@H]1CC[C@@H]2[C@H](COC[C@@H](O)CN2Cc2ccc3c(c2)OCO3)O1)N1CCOCC1 | 2 |
| O=C(C1CCCCC1)N1CC2(C1)[C@H](c1ccccc1)[C@@H](CO)N2Cc1cncnc1 | 3 |
| CCCC#Cc1ccc([C@@H]2[C@@H](CO)N(C(=O)C3CCOCC3)[C@H]2C#N)cc1 | 5 |

Following part
mol	DUX4 inh	DUX4 inh difference	DUX4 inh control
CCC(=O)N1CC2(C1)CN(Cc1cc(F)ccc1F)[C@H](CO)c1[nH]c3cc(OC)ccc3c12	?	/	/
COc1ccc2c3c(n(C)c2c1)[C@@H](CO)N(Cc1ccccc1)CC31CCN(C(=O)c2ccccc2F)CC1	?	/	/
C[C@@H]1CN([C@@H](C)CO)C(=O)CCCn2cc(nn2)CO[C@H]1CN(C)S(=O)(=O)c1ccc(C#N)cc1	0	-1	1.2
Cc1ccc(NC(=O)Nc2ccc3c(c2)C(=O)N(C)[C@H]2CC[C@H](CC(=O)O)O[C@H]2CO3)cc1	-3	-2	-0.7
CCCNC(=O)[C@H]1[C@H](CO)[C@H]2Cn3c(ccc(-c4ccccc4F)c3=O)[C@H]2N1C(=O)C1CCC1	4	5	-1.8
COCC(=O)Nc1ccc2c(c1)C(=O)N(C)C[C@@H](OC)[C@@H](C)CN(C(=O)c1ccncc1)[C@@H](C)CO2	-3	-9	5.4
O=C(C[C@@H]1CC[C@H]2[C@@H](COC[C@H](O)CN2C(=O)Nc2ccc(Cl)c(Cl)c2)O1)NCc1ccccc1	-2	3	-5.4
CCNC(=O)C[C@H]1CC[C@@H](NC(=O)C2CC2)[C@H](CO)O1	4	-1	4.5
O=C(C[C@H]1C[C@H]2c3cc(NC(=O)CC4CC4)ccc3O[C@H]2[C@@H](CO)O1)NCc1ccncc1	1	6	-4.9
COc1ccc(NC(=O)N2CCCCN3[C@H](CO)[C@H](c4ccc(C5=CCCCC5)cc4)[C@@H]3C2)cc1	1	7	-5.8
COc1ccc(-c2ccc3n(c2=O)C[C@H]2[C@H](CO)[C@@H](C(=O)Nc4ccccc4)[C@@H]3N2C)cc1	0	-8	8.3
N#C[C@H]1[C@H](c2ccc(-c3ccccc3F)cc2)[C@@H](CO)N1C(=O)C1CCOCC1	-2	1	-2.6

Rewritten with values ahead of the structure: 3 of the compounds above.
DUX4 inh	DUX4 inh difference	DUX4 inh control	molecule
?	/	/	CCC(=O)N1CC2(C1)CN(Cc1cc(F)ccc1F)[C@H](CO)c1[nH]c3cc(OC)ccc3c12
?	/	/	COc1ccc2c3c(n(C)c2c1)[C@@H](CO)N(Cc1ccccc1)CC31CCN(C(=O)c2ccccc2F)CC1
0	-1	1.2	C[C@@H]1CN([C@@H](C)CO)C(=O)CCCn2cc(nn2)CO[C@H]1CN(C)S(=O)(=O)c1ccc(C#N)cc1

Continuation.
mol	DUX4 inh	DUX4 inh difference	DUX4 inh control
CCC(=O)N1CC2(C1)CN(Cc1cc(F)ccc1F)[C@H](CO)c1c2c2ccc(OC)cc2n1C	0	6	-5.1
O=C([C@H]1[C@H](CO)[C@H]2Cn3c(cccc3=O)[C@H]2N1Cc1ccncc1)N1CCCCC1	6	6	-0.6
N#C[C@@H]1[C@H](c2ccccc2-c2ccccc2F)[C@H](CO)N1C(=O)C1CCC1	1	4	-2.9
COc1ccc2c3c(n(C)c2c1)[C@H](CO)N(C(=O)Nc1cccc(F)c1)CC31CN(C)C1	?	/	/
C[C@@H]1CCCCO[C@H](CN(C)Cc2ccc3c(c2)OCO3)[C@H](C)CN([C@@H](C)CO)C(=O)c2cc(NS(=O)(=O)c3cn(C)cn3)ccc2O1	1	6	-5.0
COc1ccc(NC(=O)N(C)C[C@H]2OCCCC[C@@H](C)Oc3ccc(NC(=O)CCCN(C)C)cc3C(=O)N([C@H](C)CO)C[C@H]2C)cc1	-5	-2	-2.6
COc1ccc2c3c([nH]c2c1)[C@H](CO)N(C(=O)CC1CC1)CC31CCN(Cc2ccncc2)CC1	9	3	5.5
CNC[C@@H]1Oc2ccc(N(C)C)cc2C(=O)N([C@H](C)CO)C[C@@H]1C	-5	-4	-1.1
COc1ccc(C#Cc2ccc([C@@H]3[C@@H](CO)N4CCCCN(S(=O)(=O)c5cn(C)cn5)C[C@@H]34)cc2)cc1	?	/	/
CN1C(=O)c2cc(NC(=O)Nc3ccc(F)cc3)ccc2OC[C@@H]2O[C@@H](CC(=O)NC3CCC3)CC[C@@H]21	2	-1	3.2
CCCN1C[C@H](C)[C@@H](OC)CN(C)C(=O)c2cc(NS(=O)(=O)c3ccccc3)ccc2OC[C@H]1C	-3	-7	5.0
C[C@@H]1CN([C@@H](C)CO)C(=O)c2cc(N(C)C)ccc2O[C@@H](C)CCCCO[C@@H]1CN(C)C(=O)Cc1ccccc1	1	-3	3.2
COc1ccc(S(=O)(=O)N(C)C[C@@H]2Oc3c(NC(=O)C4CCOCC4)cccc3C(=O)N([C@H](C)CO)C[C@@H]2C)cc1	5	4	0.4
COc1ccccc1-c1ccc2n(c1=O)C[C@H]1[C@H](CO)[C@@H](C(=O)NCC3CC3)N(S(C)(=O)=O)[C@@H]21	-4	1	-5.3
CCCC(=O)Nc1ccc2c(c1)C(=O)N(C)[C@H]1CC[C@H](CC(=O)N3CCCCC3)O[C@H]1CO2	1	1	0.2
O=C(C[C@@H]1C[C@H]2c3cc(NC(=O)c4cccnc4)ccc3O[C@H]2[C@H](CO)O1)NCC(F)(F)F	7	0	7.7
COCCN(C[C@@H]1[C@@H](c2ccccc2)[C@H](CO)N1C(=O)C1CCC1)C(C)=O	0	-5	4.1
N#C[C@H]1[C@H](c2ccc(-c3ccccc3F)cc2)[C@H](CO)N1C(=O)C1CCC1	?	/	/
C[C@H]1CN([C@@H](C)CO)C(=O)CCCn2nncc2CO[C@@H]1CN(C)S(=O)(=O)c1cccc(C#N)c1	0	1	-1.7
C[C@@H]1CN([C@@H](C)CO)C(=O)c2c(c3ccccc3n2C)-c2ccccc2CO[C@@H]1CN(C)C(=O)c1ccncc1	1	0	1.5
COCC(=O)Nc1ccc2c(c1)[C@@H]1C[C@@H](CC(=O)NCc3ccc4c(c3)OCO4)O[C@H](CO)[C@@H]1O2	6	4	2.4
O=C(Nc1ccc(F)cc1)N1CCCCN2[C@@H](CO)[C@@H](c3ccc(-c4cccc(F)c4)cc3)[C@@H]2C1	?	/	/
CN1C(=O)c2cc(NC(=O)C3CC3)ccc2OC[C@H]2O[C@@H](CC(=O)NCc3cccc(F)c3)CC[C@@H]21	0	4	-3.8
COc1ccc(NC(=O)N(C)C[C@H]2OCc3cnnn3CCCC(=O)N([C@@H](C)CO)C[C@@H]2C)cc1	2	2	0.6
CCS(=O)(=O)N(C)C[C@@H]1N[C@H](CO)[C@@H]1c1ccc(C#CC2CC2)cc1	-2	1	-2.2
Cn1cnc(S(=O)(=O)N2CCCCN3[C@H](C2)[C@@H](c2ccc(C#CC4CCCC4)cc2)[C@@H]3CO)c1	-3	-17	14
CCCNC(=O)N1[C@@H]2Cn3c(ccc(-c4ccc(OC)cc4)c3=O)[C@H]1[C@@H](C(=O)NC1CCC1)[C@@H]2CO	-2	2	-4.1
CS(=O)(=O)N1[C@H](C#N)[C@H](c2ccccc2-c2ccc(F)cc2)[C@@H]1CO	7	6	1.5
CNC[C@@H]1OCCCC[C@H](C)Oc2ccc(NC(=O)c3ccncc3)cc2C(=O)N([C@H](C)CO)C[C@H]1C	1	-1	1.1
COc1cccc(C#Cc2ccc([C@@H]3[C@@H](C#N)N(C(=O)C4CC4)[C@H]3CO)cc2)c1	-3	-1	-1.1
N#C[C@H]1[C@@H](c2ccc(C3=CCCC3)cc2)[C@H](CO)N1C(=O)NC1CCCCC1	-3	-5	1.8
COc1ccc(NC(=O)N(C)C[C@H]2Oc3ncc(C#C[C@H](C)O)cc3C(=O)N([C@H](C)CO)C[C@@H]2C)cc1	-2	-6	3.7
CCC(=O)N1[C@H](CO)[C@H](c2ccccc2)[C@H]1CN(CC)C(=O)c1cccc(F)c1	0	-5	5.5
CC=Cc1ccc2n(c1=O)C[C@H]1[C@H](CO)[C@@H](C(=O)Nc3ccccc3)N(CC3CC3)[C@@H]21 (mixture of isomers)	-5	2	-6.9
CN1c2ccc(-c3cccc(C#N)c3)cc2[C@@H]2[C@@H](CCN2C(=O)c2ccc(F)cc2)[C@@H]1CO	-3	11	-14
CC=Cc1ccc2n(c1=O)C[C@H]1[C@H](CO)[C@@H](C(=O)NCc3ccccc3)[C@@H]2N1Cc1ccccc1OC (mixture of isomers)	-10	-12	2.6
COc1ccccc1NC(=O)N1CC(=O)N2[C@H](CO)[C@@H](c3ccc(-c4cccc(C)c4)cc3)[C@H]2C1	-5	3	-8.2
COc1ccccc1CN(C)C[C@H]1OCc2cn(nn2)CCCC(=O)N([C@H](C)CO)C[C@@H]1C	5	7	-1.5
CC=Cc1ccc2n(c1=O)C[C@@H]1[C@@H](CO)[C@H](C(=O)NCc3ccccc3)[C@H]2N1C (mixture of isomers)	-8	-11	2.9
